# BJeLR viability: BJeLR cell viability loss. 300,000 tested, 0.17% active. BJeLR (HRASV12) viability, CellTiter-Glo ATP luminescence, 48 h; reference of the scale not given here. inhibition, % (test concentration not listed). AID 1554;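 active = replicate mean above 50%; inconclusive = above 50% but judged a plate artefact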;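 also: 50 nL library stock added to about 25 µL; numbers are from one replicate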
# Sa RN4220 lethal: S. aureus RN4220 growth inhibition; OD600, 16 h; inhibition, % (test concentration not listed); 330,000 tested, 0.33% active;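 active = z-score of -3 or lower and OD600 up to 0.18 on both plates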;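 also: plate controls were untreated cells for no effect and reference antibiotic for full effect; stock transfer was 100 nL into about 80 µL; one replicate is shown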
# Mtb hypoxia rep: inhibitors of hypoxia-regulated fluorescent reporter in Mycobacterium tuberculosis. M. tuberculosis hypoxia-regulated fluorescent reporter, fluorescence. fluorescence inhibition, % (concentration not given with the values). 300,000 tested, 0.1% active. AID 1159583;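 active = 35 to 45% if threefold the growth effect, above 45% if 1.5-fold the growth effect; inactive = the rest, general growth blockers included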;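 also: wells of about 50 µL received 100 nL stock; 0% = vehicle wells and 100% = reference inhibitor wells; whole bacteria with a GFP reporter of the hypoxia response; strong numbers were not always called active; many hits fall short of the cut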
# Bead autofluor: flagged as autofluorescent in microsphere protease counterscreen; compound autofluorescence counterscreen, microsphere flow cytometry; stronger effect = higher value; 360,000 tested, 3.1% active; AID 624483; fluorescence intensity (test concentration not listed);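 active = at least 3 SD above the mean of all compounds, about 16000 in these data; inconclusive = too few beads counted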;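 also: 100 nL of 1 mM stock went into each well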
# PrP UTR inh: inhibition of PrP 5' UTR reporter expression | cell-based PrP 5' UTR mRNA reporter, plate reader | inhibition, % (no concentration beside the values) | 340,000 tested, 0.35% active | AID 488862;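 active = every replicate at 50% or more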;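 also: 0 = median of the neutral control wells; tested in H4 reporter cells; numbers are from one replicate; inactives centre near -14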
# ugtP null kill: kills S. aureus RN4220 lacking UgtP | 330,000 tested, 0.54% active | S. aureus RN4220 ugtP deletion, OD600 growth, 16 h; some inactives read as strong as hits | AID 1259309 | growth inhibition, % (concentration not given with the values);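 active = z-score under -3 and OD600 up to 0.15 on both plates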;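 also: plate controls were untreated wells for no effect and antibiotic for full effect; wells of about 80 µL received 100 nL stock; the first replicate is given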
# Mtb hypoxia rep growth: second read-out of Mtb hypoxia rep, no call of its own (marks repeat the call); growth inhibition, %; measured here: M. tuberculosis growth (absorbance);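 0% = vehicle and 100% = reference antibiotic; read after six days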
# An asterisk follows results filed as active; ? = inconclusive; . = not tested or not shown. An unsorted share of the library; 4% or so of the library scored in one or more.
SMILES,BJeLR viability,Sa RN4220 lethal,Mtb hypoxia rep,Mtb hypoxia rep growth,Bead autofluor,PrP UTR inh,ugtP null kill
Cc1ccccc1NC(=O)CSc1nnc(-c2ccccn2)o1,-17,.,.,.,3696,-20,.
Clc1ccc(-c2csc3ncnc(Cl)c23)cc1,-3,0.7,12,13,2577,-36,10
CC(=O)N1CCN(c2nc3cc4c(cc3nc2NS(=O)(=O)c2ccccc2)OCCO4)CC1,0,3.5,2,8,3862,-10,0
FC(F)(F)c1nnc2ccc(N3CCCC3)nn12,-7,-0.4,.,.,2182,9,4
Cc1ccccc1NC(=O)C1CC(=O)n2ncnc2N1 (stereo unspecified),-1,4.7,3,4,5195,-26,8
Cc1c(OCC(=O)NCc2ccncc2)ccc2c3c(c(=O)oc12)CCC3,6,.,.,.,6127,-25,.
CCOC(=O)N1CCC(NC(=O)CC2C(=O)NCCN2Cc2ccc(C)cc2)CC1 (stereo unspecified),-7,3.1,11,8,5593,-10,9
CCOC(=O)CSc1ccc2nnc(-c3ccncc3)n2n1,-6,1.6,-8,2,5485,-27,-9
c1cncc(-c2cn(CC3CCC(C4CCC(Cn5cc(-c6cccnc6)nn5)O4)O3)nn2)c1 (stereo unspecified),.,-3.6,-2,1,.,.,-8
O=C(O)c1cc(-c2ccccc2)n(-c2ccc(Cl)cc2Cl)n1,-1,4.3,14,-1,3025,-12,3
Cc1ccc(OC2=NS(=O)(=O)c3ccccc32)cc1,-4,2.4,11,-3,4313,5,8
COc1cc(C)c(C(=O)Oc2cc(C)c(C(=O)O)c(O)c2)c(O)c1,-3,13,.,.,5572,-14,-10
C=CCC1(C(=O)NCCO)CCN(C(=O)OC(C)(C)C)CC1,-4,5.9,3,4,2987,-23,-1
CCC(C)N(CCNC(=O)CC1Oc2ccccc2NC1=O)C1CCCCC1 (stereo unspecified),6,0.0,.,.,5602,39,-13
Cc1nonc1NC(=O)CSc1nc2ccccc2o1,-1,-3.7,5,-5,3825,-29,5
CCc1ccccc1NC(=O)CC(=O)Nc1ccccc1CC,-11,1.2,7,5,3199,-32,9
O=C(NCc1ccco1)C1CCCN(c2ncnc3c2nc2n3CCCCC2)C1 (stereo unspecified),5,6.2,6,2,5174,-9,10
Cc1ccc(F)cc1NC(=O)c1cccc2nccnc12,-6,0.7,6,8,9662,-19,-5
COc1cc(C=NNC(=O)c2nonc2N)c(OC)cc1Br,.,3.7,5,1,.,.,-1
COCCNC(=S)N/N=C1\CC(C)CC(C)(C)C1 (stereo unspecified),-6,.,.,.,4703,-7,.
O=C(NN(c1ccccc1)c1ccccc1)c1ccccc1F,-11,4.8,-6,1,3651,-18,-2
COc1ccc(-c2csc3ncn(-c4ccccc4OC)c(=O)c23)cc1OC,13,3.5,7,1,4869,12,6
Clc1ccc(-c2noc(/C=C/c3ccccc3)n2)cc1,-4,-4.0,-1,-5,4444,-30,13
Cn1nc(C(=O)NCc2ccco2)c2ccccc2c1=O,-6,-0.5,5,-2,2124,2,9
CCn1cc(C(=O)NCCN(CC(C)C)CC(C)C)c(=O)c2cc(S(=O)(=O)N3CCOCC3)ccc21,4,4.9,-2,-5,4436,4,15

# Single records, as listed above. Values in the order: BJeLR viability, Sa RN4220 lethal, Mtb hypoxia rep, Mtb hypoxia rep growth, Bead autofluor, PrP UTR inh, ugtP null kill
# Profile of `Cc1nonc1NC(=O)CSc1nc2ccccc2o1` → -1, -3.7, 5, -5, 3825, -29, 5
# Profile of `CCc1ccccc1NC(=O)CC(=O)Nc1ccccc1CC` → -11, 1.2, 7, 5, 3199, -32, 9
# Profile of `Cc1ccccc1NC(=O)CSc1nnc(-c2ccccn2)o1` → -17, ., ., ., 3696, -20, .
# Profile of `Cc1ccc(OC2=NS(=O)(=O)c3ccccc32)cc1` → -4, 2.4, 11, -3, 4313, 5, 8
# Profile of `C=CCC1(C(=O)NCCO)CCN(C(=O)OC(C)(C)C)CC1` → -4, 5.9, 3, 4, 2987, -23, -1

# Next section
SMILES,BJeLR viability,Sa RN4220 lethal,Mtb hypoxia rep,Mtb hypoxia rep growth,Bead autofluor,PrP UTR inh,ugtP null kill
O=C(CSc1ncn[nH]1)NN(c1ccccc1)c1ccccc1,-1,-1.3,-1,7,2079,-5,-7
Cc1cc(C(=O)Nc2ccc3[nH]ccc3c2)no1,4,3.3,-5,-4,4293,-107,7
CCOc1ccc(C(C)=O)cc1COC(=O)CNC(=O)C12CC3CC(CC(C3)C1)C2,.,-1.6,-21,7,3866,-18,0
Cc1ccc(CC(=O)Nc2nccs2)cc1C,-3,-1.2,-8,5,5701,5,-4
C/C(=C\C(=O)c1ccc(Cl)cc1)Nc1ccc(Br)cc1,3,0.1,.,.,3314,-8,3
COc1cc(CO)cc(Br)c1OCc1cccnc1,9,-6.6,8,-7,3230,-7,-9
Cc1ccc(O)c(C2=NOC(O)(C(F)(F)F)C2)c1 (stereo unspecified),2,2.3,4,5,3144,-16,-8
O=C(CCNC(=O)c1ccc(Br)cc1)Nc1cccc(S(=O)(=O)N2CCCCC2)c1,18,.,.,.,4959,-7,.
CC(=O)Cn1cnc2c(cnn2-c2ccc(C)c(C)c2)c1=O,5,2.3,10,8,3498,-46,-5
COC(=O)C1=C(c2ccc(F)cc2OCc2ccccc2)C[C@@H]2CC[C@H]1N2C(=O)N1CCC(C)CC1,.,-16,9,16,3161,52,-17
Cc1cc(C)nc(NC(=O)c2cnc3sccn3c2=O)n1,8,5.6,6,4,5561,-17,9
O=C(c1ccco1)N1CCc2ccccc21,-9,9.2,6,4,4120,-54,18
C=CCN1c2ccccc2[C@]23CC(C(=O)OC)N(C(C)=O)C2=NC(C(=O)OC)=C(C(=O)OC)C13 (stereo partly specified),.,1.7,0,6,.,.,1
C=CCSC1=NC(=O)/C(=C/c2cccs2)S1,.,7.6,3,0,11004,-41,4
O=C(NN1C(=O)C2C3c4ccccc4C(c4ccccc43)C2C1=O)c1ccc(Cl)cc1 (stereo unspecified),4,4.4,3,2,2545,-6,-5
CS(=O)(=O)c1cccc(S(=O)(=O)N2CCCCCC2)c1,0,1.6,11,1,5879,-7,2
CCCC(C)NNC(=O)c1cc2ccccc2[nH]1 (stereo unspecified),19,3.8,8,6,7833,-23,-1
CCC1CN(C(=O)NCc2ccccc2)c2cc(C)ccc2O1 (stereo unspecified),7,3.7,12,3,3632,-26,7
CCC1CCCCN1C(=O)CCCc1ccccc1 (stereo unspecified),-5,3.1,.,.,.,-19,2
Cc1ccc2c(c1)c(CC(=O)Nc1ccc(C)c(F)c1)c(C(=O)O)n2C,5,-5.0,0,-4,8077,-1,-2
COc1cccc(C(=O)Cn2c(Br)nc3c2c(=O)n(C)c(=O)n3C)c1,0,5.1,2,2,16106,-26,10
O=C(Nc1nc2c(Cl)cccc2s1)c1ccc([N+](=O)[O-])o1,-7,100*,-6,-4,3423,-14,100*
C=CS(=O)(=O)N(Cc1ccccc1)C(CO)CC(C)C (stereo unspecified),.,8.2,18,10,.,.,10
CC(NC(=O)c1cc(-c2ccncc2)nc2ccc(Cl)cc12)C1CCCO1 (stereo unspecified),-3,3.3,0,-6,4628,-12,10
NC(=O)CC(NC(=O)c1cccc(Br)c1)c1ccc(NC2CCCCCCC2)c([N+](=O)[O-])c1 (stereo unspecified),21,-5.6,19,7,3352,-22,7

# (further entries)
SMILES,BJeLR viability,Sa RN4220 lethal,Mtb hypoxia rep,Mtb hypoxia rep growth,Bead autofluor,PrP UTR inh,ugtP null kill
O=C(COC(=O)CC1Sc2ccccc2NC1=O)NCc1ccccc1 (stereo unspecified),-6,1.9,-10,-3,?,-1,1
CCOC(=O)CN1C(=O)C(O)(CC(=O)c2ccc3c(c2)CCCC3)c2ccccc21 (stereo unspecified),0,-0.1,.,.,3289,-18,-5
O=C(CC1SC(=O)N(Cc2ccccc2)C1=O)Nc1nccs1 (stereo unspecified),12,.,.,.,10181,0,.
O=C(Nc1c2c(nc3ccccc13)CCCC2)c1ccccc1F,1,-3.9,-3,-3,9376,-7,5
COc1ccccc1OCCC(=O)O,0,1.9,6,1,3334,-24,6
CCOC(=O)/C(C#N)=C/c1ccc(OCC(=O)Nc2ccc(C)c(C)c2)c(OC)c1,22,5.4,-1,-6,2637,10,2
CCc1ccc(NC(=O)CCNS(=O)(=O)c2cccs2)cc1,10,6.7,11,4,3703,-28,2
CC(C)(C)C(=O)c1no[n+]([O-])c1C(=NO)C(C)(C)C,.,4.9,4,14,.,.,18
CCOC(=O)C1CCCN(S(=O)(=O)c2ccc(NC(C)=O)cc2)C1 (stereo unspecified),4,1.7,-2,-10,4429,-32,2
COc1cc(/C=N/NC(=O)COc2ccc(-n3cnnn3)cc2)ccc1OCC(N)=O,-2,.,.,.,4386,-3,.
CCc1cc2c(=O)n(-c3ccccc3)c(SCC(N)=O)nc2s1,-5,-0.7,-2,9,3410,-11,6
O=C(NN=Cc1cccc(O)c1)c1cc2c(ccc3ccccc32)o1,.,0.7,2,8,.,.,-15
CC1CCCCC1NC(=O)CON=Cc1ccccc1OC(F)F (stereo unspecified),.,5.9,-2,0,.,.,17
CC1(C)Oc2ccc(C(=O)N/N=C/c3ccc(O)cc3)cc2NC1=O,-2,.,.,.,4534,-17,.
Cc1cc(O)c(C=NNc2ccccc2Cl)c(=O)o1,.,5.9,9,9,.,.,5
COc1ccc(C(=O)COC(=O)c2cccnc2SC)cc1,-2,.,.,.,4053,-7,.
Cc1cc(F)ccc1NC(=O)C1CCCO1 (stereo unspecified),16,6.3,3,-6,4691,-16,5
CC1CCCCC1NC(=O)COC(=O)c1c2c(nc3ccccc13)/C(=C\c1ccco1)CC2 (stereo unspecified),.,18,0,9,3630,-14,-4
N#Cc1cc(NC2CCCC2)c([N+](=O)[O-])cc1C#N,5,39,-3,1,2560,-28,38
CCOC(=O)N1CCN(Cc2nc3c(c(=O)n(C)c(=O)n3C)n2Cc2cccc(C)c2)CC1,2,8.0,4,5,5714,-25,-11
O=C(NN=Cc1ccccn1)c1sc2ccccc2c1Cl,.,0.9,7,7,.,.,-1
CCOC(=O)CCCc1ccc(/C(C)=N/NC(=S)NC)cc1,1,.,.,.,5888,-10,.
CN(C1CCCCC1)S(=O)(=O)c1ccc(-n2cnnn2)cc1,8,2.7,19,6,?,-15,-7
C=CCOc1nc(N(C)C)nc(N(C)C)n1,-2,2.2,.,.,4780,-9,8
FCCCOc1ccc(-c2ccnc(-c3ccccc3)n2)cc1,-5,-4.7,.,.,4708,-25,26

# Additional records follow:
SMILES,BJeLR viability,Sa RN4220 lethal,Mtb hypoxia rep,Mtb hypoxia rep growth,Bead autofluor,PrP UTR inh,ugtP null kill
C/C(=N\NC(=O)CN(c1ccccc1)S(C)(=O)=O)c1ccccc1O,-5,.,.,.,3882,-1,.
Cc1ccc(CN2CCN(Cc3ccc(O)cc3)CC2CCO)o1 (stereo unspecified),11,1.2,1,5,4545,-5,1
COc1c(C(=O)NNC(=O)c2ccccc2Cl)csc1Br,-8,4.5,-7,4,6090,-30,-1
COC(=O)c1cc(S(=O)(=O)NCC2CCN(Cc3ccc(C)cc3)CC2)cn1C,7,5.3,-4,-7,8129,-7,15
O=C1N[C@@H](Cc2ccccc2)C(=O)N2[C@@H]1C[C@@]1(Br)c3ccccc3N(S(=O)(=O)c3ccccc3)[C@@H]21,-3,.,.,.,3751,-21,.
COCc1cc(/C=N\NC(=O)Cc2ccc(Cl)cc2)ccc1OC,-5,.,.,.,2522,-18,.
O=C(CCS(=O)(=O)c1ccccc1)N1CCN(c2ccc(F)cc2)CC1,-5,4.2,2,0,5348,-19,2
COc1cccc(/C=N/N2CCN(c3ccccc3OC)CC2)c1,4,.,.,.,24263*,-41,.
CCn1c(SCC(=O)N2CCCCCC2)nc2c(c1=O)SCC2,3,-4.1,2,3,4651,1,-2
O=C(N/N=C1\CCCc2ccccc21)c1ccccc1Cl,-3,.,.,.,4438,-24,.
CSc1cc(-c2ccncc2)nc(-c2ccc(Cl)cc2)c1,3,-6.3,1,1,3998,.,15
CCCCN(C(=O)CNC(=O)c1ccco1)C(C(=O)NC1CCCCC1)c1ccc(OC)cc1OC (stereo unspecified),27,0.3,.,.,4696,-18,4
Cc1ccc(C(=O)Nc2nc(-c3cc(Cl)sc3Cl)cs2)cc1,2,5.1,5,6,6132,-8,-7
CC(=O)Nc1ccccc1NC(=O)CC(C)=NNC(=O)C1CCCCC1,.,1.4,1,-1,.,.,8
